Screens deposited in PubChem BioAssay by several laboratories.
PrP 5UTR inh: inhibition of PrP 5' UTR reporter expression; inhibition, % (test concentration not listed); cell-based PrP 5' UTR mRNA reporter, plate reader; 340,000 tested, 0.35% active;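 active = every replicate at 50% or more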;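 note: 0 = median of the neutral control wells; tested in H4 reporter cells; numbers are from one replicate; inactives centre near -14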
Autofluor counter: flagged as autofluorescent in microsphere protease counterscreen; compound autofluorescence counterscreen, microsphere flow cytometry; hits give high values; 360,000 tested, 3.1% active; fluorescence intensity (no concentration beside the values);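 active = at least 3 SD above the mean of all compounds, about 16000 in these data; inconclusive = too few beads counted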;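 note: 100 nL of 1 mM stock went into each well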
Sa ugtP lethal: compounds lethal to S. aureus RN4220 ugtP deletion mutant. OD600 growth, 16 h; some inactives read as strong as hits. growth inhibition, % (test concentration not listed). 330,000 tested, 0.54% active. AID 1259309;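 active = z-score under -3 and OD600 up to 0.15 on both plates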;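 note: plate controls were untreated wells for no effect and antibiotic for full effect; wells of about 80 µL received 100 nL stock; the first replicate is given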
Sa RN4220 lethal: S. aureus RN4220 growth inhibition; OD600, 16 h; 330,000 tested, 0.33% active; AID 1259311; inhibition, % (concentration not given with the values);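 active = z-score of -3 or lower and OD600 up to 0.18 on both plates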;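 note: plate controls were untreated cells for no effect and reference antibiotic for full effect; stock transfer was 100 nL into about 80 µL; one replicate is shown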
BJeLR viability: kills HRASV12-expressing BJeLR cells. BJeLR (HRASV12) viability, CellTiter-Glo ATP luminescence, 48 h; reference of the scale not given here. inhibition, % (no concentration beside the values). 300,000 tested, 0.17% active;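 active = replicate mean above 50%; inconclusive = above 50% but judged a plate artefact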;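 note: 50 nL library stock added to about 25 µL; numbers are from one replicate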
Mtb hypoxia inh: reduces hypoxia-regulated biosensor signal in M. tuberculosis. M. tuberculosis hypoxia-regulated fluorescent reporter, fluorescence. fluorescence inhibition, % (test concentration not listed). 300,000 tested, 0.1% active. AID 1159583;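 active = 35 to 45% if threefold the growth effect, above 45% if 1.5-fold the growth effect; inactive = the rest, general growth blockers included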;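 note: wells of about 50 µL received 100 nL stock; 0% = vehicle wells and 100% = reference inhibitor wells; whole bacteria with a GFP reporter of the hypoxia response; strong numbers were not always called active; many hits fall short of the cut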
Mtb hypoxia inh growth: also measured in Mtb hypoxia inh; calls as there; growth inhibition, %; measured here: M. tuberculosis growth (absorbance);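 0% = vehicle and 100% = reference antibiotic; read after six days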
* marks the source's active call; other numbers are inactive results; ? = inconclusive; / = no result given; & = joins results of further samples. Rows are unselected (roughly 4% active in at least one column).

SMILES	PrP 5UTR inh	Autofluor counter	Sa ugtP lethal	Sa RN4220 lethal	BJeLR viability	Mtb hypoxia inh	Mtb hypoxia inh growth
O=C(C[n+]1cccc2ccccc21)c1ccc([N+](=O)[O-])cc1	-12	6531	4	2.5	10	-4	4
O=C(CCNC(=O)c1ccc([N+](=O)[O-])cc1)NC1CCCc2ccccc21 (centres undefined)	-20	4713	8	4.0	/	3	1
CC1(C)Cc2c(cnn2-c2ccc(F)cc2)C(NC(=O)C2CCC2)C1 (centres undefined)	-6	6266	3	-2.6	-2	-9	9
Cc1ccc(CNC(=O)CN(C(=O)C2(C)CC(=O)N=C3C=CC=CN32)c2cc(C)ccc2C)cc1 (centres undefined)	-13	6332	5	0.1	5	-1	8
CCN1CC2C3C(=O)N(Cc4ccccc4)C(=O)C3[C@](C)(C1=O)N2C(=O)c1ccccc1 (some centres undefined)	/	/	0	3.6	/	7	7
Cc1ccc(C)c(NC(=O)CN(C)C(=O)C2CCCC2)c1	-11	3710	5	5.3	/	-2	-9
CCCc1nc2oc3cc(OC)ccc3c(=O)c2c(=O)n1CCc1ccccc1	-15	3299	0	2.3	-3	-4	12
O=C(CCS(=O)(=O)c1cccc2nonc12)NCc1ccc(Cl)cc1	-30	4304	0	-2.1	-6	16	4
N#Cc1cccc(C#N)c1NCC1CCCO1 (centres undefined)	-4	3387	4	2.2	-1	5	8
CC(=O)Nc1ccc(S(=O)(=O)NC2=NCN(c3ccc([N+](=O)[O-])cc3)CN2)cc1	1	4837	-7	-6.5	-1	-5	-13
COc1ccc(/C=C2\C(=O)ON=C2c2ccccc2)cc1OC	-16	3725	-1	-1.0	-3	-5	6
Cc1ccnc(SCC(=O)Nc2cc(C)on2)n1	-11	5771	0	1.1	-11	2	9
CCCCCCSc1ccc(-c2nc3ccc(Cl)cn3c2NCCCC)cc1OC	-11	3583&5438	3	3.8	/	5	11
O=C(COC(=O)CCc1ccc(S(=O)(=O)N2CCOCC2)cc1)Nc1cccc(Cl)c1	-20	4247	7	4.3	-1	12	4
CCOC(=O)c1c(NC(=O)CSc2nnc(-c3cccnc3)n2Cc2ccco2)sc(C)c1C	-17	4886	-13	-10.0	-8	-4	10
Cc1cc([N+](=O)[O-])cc2c1NC(c1ccccn1)C1CC=CC21 (centres undefined)	-16	3583	6	3.2	16	-6	-7
COc1cccc(/C=N/NC(=O)CSc2nnc(C)n2-c2ccccc2)c1O	-24	3316	/	/	-13	/	/
O=[N+]([O-])c1ccccc1CN1CCN(Cc2ccccn2)CC1	-11	?	-3	-1.3	-5	-7	-6
N#Cc1ccc(OCC(=O)NC2CCCCCC2)cc1	10	3098	13	4.1	/	22	15
Cc1ccc(CNC(=O)CO/N=C/c2ccc3c(c2)OCO3)cc1	1	2245	/	/	-8	/	/
C=CCN1C(=O)c2ccc(C(=O)N3CCN(S(=O)(=O)c4ccc(C(C)C)cc4)CC3)cc2C1=O	-6	5539	0	2.4	-3	0	-1
O=C(c1cc(COc2ccc(F)cc2F)on1)N1CCN(C2CCCC2)C(=O)C1	-21	4585	-5	3.9	3	13	10
COc1ccc(-n2c(=O)c3ccccc3n(Cc3cccc(C)c3)c2=O)cc1OC	-14	3631	9	2.3	-2	-18	-13
O=C(Nc1cccnc1)c1c(F)cccc1F	-6	16636*	5	-0.9	4	6	0
C/C(CC(=O)Nc1cccc(Cl)c1Cl)=N\NC(=O)C(=O)N1CCCC1	-13	3607	/	/	-4	/	/
Cc1[nH]c2ccccc2c1C=NNC(=O)c1ccco1	/	/	-4	-2.7	/	11	4
COc1ccc(C(NC(N)=O)c2ccccc2)cc1 (centres undefined)	-28	11316	9	2.2	-4	17	12
O=C(O)CC(NCc1ccco1)C(=O)OCC1CCCO1 (centres undefined)	-12	2662	4	1.3	8	3	7
COC(=O)c1ccc(SCc2cnc(Cl)s2)cc1	-40	10155	0	11	-3	2	8
CCOc1ccccc1CNC(=O)c1cn(C)c(=O)c2c1c1ccccc1n2C	-16	5931	15	3.9	19	-2	-5

In the list so far, these have four or more nitrogen atoms.
SMILES	PrP 5UTR inh	Autofluor counter	Sa ugtP lethal	Sa RN4220 lethal	BJeLR viability	Mtb hypoxia inh	Mtb hypoxia inh growth
Cc1ccc(CNC(=O)CN(C(=O)C2(C)CC(=O)N=C3C=CC=CN32)c2cc(C)ccc2C)cc1 (centres undefined)	-13	6332	5	0.1	5	-1	8
CC(=O)Nc1ccc(S(=O)(=O)NC2=NCN(c3ccc([N+](=O)[O-])cc3)CN2)cc1	1	4837	-7	-6.5	-1	-5	-13
Cc1ccnc(SCC(=O)Nc2cc(C)on2)n1	-11	5771	0	1.1	-11	2	9
CCOC(=O)c1c(NC(=O)CSc2nnc(-c3cccnc3)n2Cc2ccco2)sc(C)c1C	-17	4886	-13	-10.0	-8	-4	10
COc1cccc(/C=N/NC(=O)CSc2nnc(C)n2-c2ccccc2)c1O	-24	3316	/	/	-13	/	/
O=[N+]([O-])c1ccccc1CN1CCN(Cc2ccccn2)CC1	-11	?	-3	-1.3	-5	-7	-6
C/C(CC(=O)Nc1cccc(Cl)c1Cl)=N\NC(=O)C(=O)N1CCCC1	-13	3607	/	/	-4	/	/

(next part)
SMILES	PrP 5UTR inh	Autofluor counter	Sa ugtP lethal	Sa RN4220 lethal	BJeLR viability	Mtb hypoxia inh	Mtb hypoxia inh growth
Cc1cccc(N2C(=O)CN(Cc3ccccc3)C2=S)c1	-5	3651	2	8.0	5	6	2
O=C(OCC(=O)N1CCN(c2ccccc2)CC1)c1ccc([N+](=O)[O-])s1	-23	3951	4	9.5	/	15	13
COc1ccc(CNC(=O)C2CCC(=O)N(CCCN3CCCC3=O)C2)c(OC)c1 (centres undefined)	-24	5304	11	3.3	1	14	3
COc1ccc(N(CC(=O)NC2CCS(=O)(=O)C2)S(=O)(=O)c2ccc(Cl)c(Cl)c2)cc1 (centres undefined)	-13	4930	3	4.3	/	1	-6
COc1ccc(NC(=O)CCN2CCN(S(=O)(=O)c3ccc(F)cc3)CC2)cc1	-18	5465	8	5.4	15	17	8
O=C(COc1ccccc1Cl)Nc1ccc(C(=O)c2ccc(C(=O)O)cc2)cc1	-18	2692	-6	11	0	11	-1
Cc1c(CCC(=O)NCC(=O)O)c(=O)oc2cc3occ(-c4ccccc4)c3cc12	1	3261	-19	11	-3	0	-7
COc1cc(NS(=O)(=O)c2cc(NC(C)=O)ccc2OC)c(OC)cc1NC(=O)c1ccccc1	-3	3204	5	-2.6	/	12	7
O=C(Cc1ccccc1Cl)Nc1cccc(S(=O)(=O)N2CCOCC2)c1	-35	2127	2	3.2	-11	4	2
CCn1cnc2cc(NCc3ccc(N(C)C)cc3)ccc21	-17	3937	1	3.6	-1	14	2
Cc1ccc(C(=O)Nc2cccc([N+](=O)[O-])c2)cc1S(=O)(=O)Nc1ccc(C(=O)O)cc1	-9	2443	8	-0.4	-1	-6	-19
CN(C)C(=O)CSc1nc2cc(S(=O)(=O)N3CCOCC3)ccc2o1	-28	3410	-5	2.9	/	7	4
Cc1ccc(NC(=O)CSCc2nc3c(nnn3Cc3ccc(F)cc3)c(=O)[nH]2)c(C)c1	13	3221	-9	-1.8	/	3	-3
C/C=C\C(=O)Nc1cccc(C2=NOC3(C2)C[C@H](C(N)=O)N(C(=O)/C=C/CC)C3)c1 (some centres undefined)	-20	4389	/	/	-1	/	/
Cc1c(C(c2ccccc2O)c2c(C)n(C)n(-c3ccccc3)c2=O)c(=O)n(-c2ccccc2)n1C	5	4305	-1	0.5	-2	19	-3
O=C(CN(Cc1ccc(Cl)cc1)S(=O)(=O)c1ccccc1)NCC1CCCO1 (centres undefined)	-10	5116	4	2.6	2	5	11
CC(C)C[C@H](NC(=O)N1CCn2c1nc1ccccc12)C(=O)N[C@@H](C(=O)O)c1ccccc1	4	6166	4	2.1	6	/	/
Cc1cc(S(=O)(=O)Nc2cccc(C(=O)O)c2)c(C)c(S(=O)(=O)c2ccc(Cl)cc2)c1	-17	3561	10	3.4	1	-3	-3
CC1CCCCN1C(=O)COc1ccc(F)cc1 (centres undefined)	-23	2135	2	-1.6	1	-2	15
CNc1ncc(C(=O)c2ccccc2)s1	-47	13326	-3	4.3	4	-6	-1
Cc1cc(OCC(=O)NCc2cccnc2)ccc1[N+](=O)[O-]	-5	3738	5	-2.2	6	6	5
Cc1ccc(-c2nnc(SCc3ccccc3F)o2)cc1	-92	8123	34	12	2	26	22
CCOc1cc(/C=C2\COc3ccccc3C2=O)cc(Br)c1OCC(=O)N(C)C	-18	6952	19	24	65*	2	13
COc1ccc(NC(=O)C(CCCCNC(=O)OC(C)(C)C)NC(=O)OCc2ccccc2)cc1 (centres undefined)	-22	2469	-5	3.3	1	-7	4
Cc1cc(C)nc(SCC(=O)c2ccc(F)cc2F)n1	-11	3411	-1	8.2	3	21	9
CC(C)(C)NC(=O)NC(=O)COC(=O)Cn1cnc2ccccc2c1=O	2	5049	1	0.8	-3	5	1
COC(=O)c1nnn(-c2nonc2N)c1CSc1nnc(C)s1	-12	3165	10	5.2	2	11	9
COc1ccc(C(=O)N/C(=C\c2ccccc2)C(=O)NCCCn2ccnc2)cc1	-31	3429	0	-0.3	-2	6	-2
COc1cc(/C=C2\C(=O)NC(=O)N(c3ccccc3)C2=O)c([N+](=O)[O-])cc1OC	-5	4384	8	2.7	/	-7	6
CC(C)(C)NC(=O)C(OC(=O)c1ccco1)c1ccccc1F (centres undefined)	-21	3016	2	3.3	-13	5	0

4 structures out of the list, sorted by heavy-atom count, smallest number first.
SMILES	PrP 5UTR inh	Autofluor counter	Sa ugtP lethal	Sa RN4220 lethal	BJeLR viability	Mtb hypoxia inh	Mtb hypoxia inh growth
CC1CCCCN1C(=O)COc1ccc(F)cc1 (centres undefined)	-23	2135	2	-1.6	1	-2	15
COC(=O)c1nnn(-c2nonc2N)c1CSc1nnc(C)s1	-12	3165	10	5.2	2	11	9
CC(C)(C)NC(=O)NC(=O)COC(=O)Cn1cnc2ccccc2c1=O	2	5049	1	0.8	-3	5	1
CCOc1cc(/C=C2\COc3ccccc3C2=O)cc(Br)c1OCC(=O)N(C)C	-18	6952	19	24	65*	2	13

The results go on.
SMILES	PrP 5UTR inh	Autofluor counter	Sa ugtP lethal	Sa RN4220 lethal	BJeLR viability	Mtb hypoxia inh	Mtb hypoxia inh growth
CCn1cc(CN2CCN(Cc3ccc(C)o3)C(CCO)C2)c2ccccc21 (centres undefined)	-22	4393	5	3.0	6	0	11
Cc1cc(C(=O)OCC(=O)Nc2cccc([N+](=O)[O-])c2)c(C)o1	-8	8424	-2	2.6	/	-2	7
COc1cccc(Oc2nnnn2-c2ccccc2)c1	-55	9159	-10	3.7	8	12	6
CC(C)(C)c1ccc(-c2n[nH]c(=S)n2N=Cc2ccncc2)cc1	/	/	8	7.2	/	-1	-4
O=C1CCCCN1CC(=O)N1CCCC(Nc2ccc(F)c(F)c2)C1 (centres undefined)	-23	5710	7	2.8	-2	-8	-5
S=C(Nc1ccc(Cl)cc1)N1CCCCC1	-32	1905	14	-1.1	-15	0	8
O=C(c1c[nH]cc1-c1ccccc1)c1cccc2ccccc12	-11	3301	33	22	-1	4	0
O=[N+]([O-])c1ccc(Nc2cccc(F)c2)nc1	-2	3248	-12	-0.2	6	12	8
Cc1cc(C)cc(OC(C)C(=O)Nc2ccc(S(=O)(=O)Nc3cc(C)nc(C)n3)cc2)c1 (centres undefined)	-21	5973	2	1.5	-1	6	-1
Cc1cccn2c(=O)c3cc(C#N)c(=NC(=O)c4cccnc4)n(CC4CCCO4)c3nc12 (centres undefined)	-17	2503	-1	5.7	5	0	-4
O=C1CC(c2ccc(F)cc2)CC2=C1C(c1ccc([N+](=O)[O-])o1)Nc1ccccc1N2 (centres undefined)	2	/	10	2.9	-8	3	7
O=C(c1cccc(NS(=O)(=O)c2ccc(F)cc2)c1)N1CCN(c2ccccc2)CC1	-7	4404	11	-0.2	6	0	-6
CCCOc1cccc(C(=O)Nc2ccc(CN3CCOCC3)cc2)c1	-5	3740	2	0.2	0	-6	4
COC(=O)c1ccc(CO/N=C/c2ccc(OC)cc2OC)cc1	-15	4093	/	/	-7	/	/
CCCCCC(=O)NN=Cc1ccccc1[N+](=O)[O-]	/	/	4	1.9	/	8	17
